ClpP mod = qHTS Assay for Activators of ClpP; ATP-dependent Clp protease proteolytic subunit (Bacillus subtilis (strain 168)), P80244; 340,000 compounds, 1.9% hits; purified B. subtilis ClpP, FRET peptide cleavage, 20 min; Potency, µM (top dose mostly 57.5 µM), inactives show at the top dose activity change, negative = active; AID 651965, 2013; active = well fitted falling curve with a large enough effect; inconclusive = small, poorly fitted or top-dose-only effect; inactive = no such curve, though single readings can be large or run the other way; note: potency is the fitted concentration of half-maximal effect; the source files actives as falling curves though it sought activators and does not explain the sign; nearly all actives have a fitted effect of over 65% in size; many hits overshoot -100%
Target sequence (P80244 whole entry, looked up): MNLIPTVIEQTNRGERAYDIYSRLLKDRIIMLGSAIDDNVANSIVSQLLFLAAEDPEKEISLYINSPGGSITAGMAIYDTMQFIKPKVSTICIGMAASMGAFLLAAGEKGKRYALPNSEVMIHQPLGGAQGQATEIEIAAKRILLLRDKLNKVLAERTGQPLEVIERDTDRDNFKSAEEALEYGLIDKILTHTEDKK
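Buffer: 100 mM Tris/HCl pH8, 100 mM KCl, 0.05% low protease BSA, 2.5% glycerol, 0.01% Tween-20. ClpP 10 microg/mL final; 20 min RT; delta FRET normalized to ADEP and DMSO controls.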
gsp ag = gsp mutant agonism; gsp mutant cells, cAMP HTRF, 30 min; control for the full effect not named in the record; Potency, µM (highest dose often 76.9 µM), inactives show at the highest dose activation (cAMP increase), usual class: activators; 340,000 compounds, 0.13% hits; active = well fitted activation curve with a large enough effect; inconclusive = small, poorly fitted or top-dose-only effect, or another doubt; inactive = no such curve, though single readings can be large or run the other way; cell line not stated here;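 note: phosphodiesterase inhibitor Ro 20-1724 added with compounds to block cAMP breakdown; potency is the fitted concentration of half-maximal effect; nearly all actives have a fitted effect of over 60% in size; about a fifth of the inactives were tested at one dose only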
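Cells stably selected in G418 were plated at 2000/well, grown 16-24 hr, then given compounds in DMSO with the PDE inhibitor […] (300 uM solution added) for 30 min at 37C; cAMP was read by HTRF.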
Sfp PPTase inh = Sfp phosphopantetheinyl transferase inhibition | Q9F4F7 | Biochemical Sfp PPTase activity, qHTS | Potency, µM, for inactives: max response, negative = inhibition, usual class: inhibitors | 310,000 compounds, 3.5% hits | AID 1490; active = well fitted inhibition curve with a large enough effect; inconclusive = small, poorly fitted or top-dose-only effect, or another doubt; inactive = no such curve, though single readings can be large or run the other way;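 note: the enzyme is Sfp with the accession as filed and its product quenches rhodamine fluorescence; potency is the fitted concentration of half-maximal effect; 0% = enzyme reaction without inhibitor and -100% = no enzyme wells; top concentration of the series not given in the record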
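Fluorescence-quenching assay with 15 nM Sfp, 5 uM rhodamine-CoA and 12.5 uM BHQ-2-labelled ybbR peptide in pH 7.6 Hepes/MgCl2 buffer. Enzyme was pre-incubated with compound for 15 min at room temperature. Rate was taken from the 30-min fluorescence change (525/598 nm).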
gsp antag = antagonizes gsp, the McCune-Albright syndrome mutation | gsp-mutant cells, cAMP HTRF, 30 min; control for the full effect not named in the record | Potency, µM (titrated, usually from 76.9 µM), for inactives: top-dose activity change, negative = inhibition, most hits filed as inhibitors | 340,000 compounds, 0.4% hits; active = falling curve of any shape with a large fitted effect; inconclusive = falling curve, mostly with a smaller effect; inactive = flat or rising curve; cell line not stated here;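 note: intracellular cAMP measured with PDE inhibitor Ro 20-1724 present during compound exposure; potency is the fitted concentration of half-maximal effect; % is set by controls: 0 for no effect and ±100 for the full control effect; nearly all actives have a fitted effect of over 65% in size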
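HTRF cAMP measurement after 30 min RT detection following 30 min, 37C compound treatment alongside […] (added as 300 uM solution) in G418-selected cells seeded at 2000/well and grown 16–24 h.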
TRPV1 potentiator = potentiators of human vanilloid receptor 1 (TRPV1); Q8NER1; TRPV1-expressing cells, Fluo-8 calcium influx, capsaicin EC20 potentiation; host cell line not named in the record; control for the full effect not named in the record; potentiation, % at 8.33 µM; 320,000 compounds, 0.02% hits; active means potentiation above 80%; inconclusive means 30% to 80%; inactive means below 30%; note: 0% is about no effect
Target sequence (Q8NER1 whole entry, looked up): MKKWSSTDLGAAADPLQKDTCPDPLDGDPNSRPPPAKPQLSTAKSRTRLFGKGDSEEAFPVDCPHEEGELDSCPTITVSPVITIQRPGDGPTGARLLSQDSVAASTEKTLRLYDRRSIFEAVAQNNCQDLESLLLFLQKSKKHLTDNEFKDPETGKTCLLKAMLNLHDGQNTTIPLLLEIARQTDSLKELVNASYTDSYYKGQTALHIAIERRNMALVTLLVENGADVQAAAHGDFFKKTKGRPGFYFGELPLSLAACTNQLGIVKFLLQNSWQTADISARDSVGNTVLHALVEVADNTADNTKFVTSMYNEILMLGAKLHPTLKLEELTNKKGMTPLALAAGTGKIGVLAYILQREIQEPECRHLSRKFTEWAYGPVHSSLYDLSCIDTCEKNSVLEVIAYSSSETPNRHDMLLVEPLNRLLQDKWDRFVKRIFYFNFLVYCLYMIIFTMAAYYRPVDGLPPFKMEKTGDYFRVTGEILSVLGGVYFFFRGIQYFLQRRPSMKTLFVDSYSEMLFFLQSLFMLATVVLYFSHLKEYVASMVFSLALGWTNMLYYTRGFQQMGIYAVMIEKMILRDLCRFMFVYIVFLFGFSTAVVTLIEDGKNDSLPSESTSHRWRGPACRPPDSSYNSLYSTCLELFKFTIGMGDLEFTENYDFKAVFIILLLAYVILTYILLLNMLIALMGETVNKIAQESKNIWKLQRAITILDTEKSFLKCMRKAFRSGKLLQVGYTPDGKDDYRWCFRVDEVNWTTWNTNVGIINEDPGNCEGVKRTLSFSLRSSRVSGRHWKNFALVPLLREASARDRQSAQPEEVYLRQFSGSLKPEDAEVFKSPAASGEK
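Fluo-8 calcium influx in TRPV1-expressing cells, kinetic read (ex 480/em 520 nm). Compound added and read 3 min for agonist activity, followed by capsaicin at EC20 final and 2 min further read for enhancement.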
Menin MLL FP FL = inhibitors of human menin-MLL interaction, wild-type MLL peptide; 290,000 tested, under 10 active; Fluorescence polarization, fluorescein-MLL peptide displacement from menin; FP activity change, % at 61.4 µM; inconclusive = falling polarisation curve, or a change in total fluorescence; inactive = total fluorescence flat and polarisation flat or rising; no compound was filed as active; the % refers to the polarisation; negative = inhibition;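 note: % of control where 0% means no effect; inhibitors lower the polarisation; unlabelled MLL peptide was the positive control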
CtBP-E1A inh = blocks the CtBP interaction with E1A. AlphaScreen GST-E1A/His-CtBP binding, 1536-well; stronger effect = lower value; control for the full effect not named in the record. activity change, % (concentration not given with the values). 340,000 compounds, 0.49% hits. AID 651724; in the data active means activity change below about -65%; inconclusive means about -30% to -65%; inactive means above about -30%; note: % is set by controls: 0 for no effect and ±100 for the full control effect
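In 5 uL wells, 23 nL compound meets equimolar GST-E1A and His-CtBP (5X stock 125 nM each) for 2 h, 37 °C. Beads (5X, 50 ug/mL) then 1 h, 37 °C, dark.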
Active calls of the source: *; ? = inconclusive; nt = not tested or not shown; [ ] = dose if it differs, or a comment.

Start of the data: the first 3 entries, ahead of the listing:
Compound	ClpP mod	gsp ag	Sfp PPTase inh	gsp antag	TRPV1 potentiator	Menin MLL FP FL	CtBP-E1A inh
COc1cc(/C=N/Nc2nc3ccccc3s2)ccc1O	nt	11%	-22%	-8%	26	1.3	-12
COc1ccc(S(=O)(=O)N2CCC(C(=O)N3CCOCC3)CC2)cc1Cl	nt	?	24%	11%	8	2.8	5
COc1cc(-c2cc3nc4ccccc4n3c(N)c2C#N)cc(OC)c1OC	nt	28µM*	19%	13%	-15	3.8	-20

Main list (from the top)
Compound	ClpP mod	gsp ag	Sfp PPTase inh	gsp antag	TRPV1 potentiator	Menin MLL FP FL	CtBP-E1A inh
COc1cc(/C=N/Nc2nc3ccccc3s2)ccc1O	nt	11%	-22%	-8%	26	1.3	-12
COc1ccc(S(=O)(=O)N2CCC(C(=O)N3CCOCC3)CC2)cc1Cl	nt	?	24%	11%	8	2.8	5
COc1cc(-c2cc3nc4ccccc4n3c(N)c2C#N)cc(OC)c1OC	nt	28µM*	19%	13%	-15	3.8	-20
CC(C)=C(NC(=O)c1ccccc1)C(=O)Nc1cccc(C)c1	2.4%	?	15%	11%	0	0.1	-1
Cc1nn(C(=O)N2CCOCC2)c(C)c1C	1.3%	0%	13%	0%	-3	-2.8	8
O=C(O)CSc1c2c(nc3cc(C(=O)N4CCOCC4)ccc13)CCCC2	?	12%	50µM*	-7%	3	0.1	-19
c1cc(C(c2nnnn2C2CCCC2)N2CCOCC2)ccn1 (configuration not stated)	-2.5%	-39%[inhibitor]	-21%	0%	-19	-0.3	6
COc1ccc(NC(=O)C(Br)C(C)C)cc1 (configuration not stated)	nt	-4%[15.4 µM]	9%	0%	24	-2.8	13
COc1ccc(NC(=O)COC(=O)c2cccc(S(=O)(=O)N(C)C)c2)cc1	-0.5%	2%	13%	-12%	-5	1.7	14
COc1ccc(-c2nn(-c3ccccc3)cc2C(=O)NC(=S)Nc2cc(Cl)ccc2Cl)cc1	-0.4%	-11%	-4%	6%	?	3.3	4
CCOC(=O)c1sc(N(Cc2ccccc2)C(=O)CN2C(=O)CN(C)C2=O)nc1C	-1.3%	-16%	-3%	-13%	-3	2.5	-1
COc1ccc(-c2nc(CS(=O)CC(=O)NC3CCCCCC3)c(C)o2)cc1 (configuration not stated)	?	5%	10%	3%	-5	0.5	1
CN(Cc1ccco1)c1ncnc2ccc(-c3ccc4c(c3)OCO4)cc12	nt	nt	45µM*	nt	-13	5.6	nt
Cc1ccc(NC(=O)C(C)C(=O)Nc2ccc(C)cc2)cc1	nt	-8%[15.4 µM]	17%	5%	-1	-4.9	0
COc1cccc(C=NNc2ccc([N+](=O)[O-])cn2)c1OC	nt	?	nt	10%	nt	nt	-1
COc1ccc(C(CNC(=O)c2ccc(-c3ccccc3Cl)o2)N2CCCC2)cc1 (configuration not stated)	-20%	-117%[inhibitor]	nt	nt	nt	nt	-3
O=S(=O)(N/N=C/c1ccccc1F)c1ccccc1	nt	-5%[15.4 µM]	14%	2%	1	1.7	3
COc1ccc(-c2nn(-c3ccccc3)cc2/C=C/C(=O)OCC(=O)Nc2ccccc2C#N)cc1	-2.8%	5%[15.4 µM]	14%	-8%	24	2.3	3
Cc1cc(NC(=O)c2ccc(C)c([N+](=O)[O-])c2)no1	nt	-2%[15.4 µM]	-9%	-10%	-17	-1.1	-5
CCCCN(C(=O)CSCc1c(C)noc1C)c1c(N)n(CCC)c(=O)[nH]c1=O	-1.8%	15%[15.4 µM]	8%	-8%	-36	nt	14
Cc1cc(NC(=O)c2cccc(C)c2[N+](=O)[O-])no1	-0.4%	11%[15.4 µM]	19%	1%	17	0.2	-1
COc1cccc(NC(=S)N2CCN(S(=O)(=O)c3ccccc3)CC2)c1	0.3%	-5%	1%	2%	-3	nt	0
CC(C)Cn1c(Br)nc2c1c(=O)n(CCC#N)c(=O)n2C	-1.2%	?	2%	2%	5	0.5	2
CCN(CC)S(=O)(=O)c1cccc(NC2=NCCCCC2)c1	0.7%	6%	11%	13%	8	-4.2	4
COc1cc(N=Cc2c(O)[nH]c3ccccc23)cc(OC)c1OC	-0.9%	-60%[inhibitor]	-21%	-5%	-16	1.1	-10
COc1ccc(OC)c(C(=O)N(C)C2CCCN(Cc3ccccc3F)C2)c1 (configuration not stated)	-3.1%	-4%	13%	7%	17	0.6	nt
CC(O)CNCCNCc1c(OCc2ccccc2)ccc2ccccc12 (configuration not stated)	0.2%	25%	?	13%	29	-0.4	51
CCCCN1C2=C(C(=O)CCC2)C(c2ccc(Cl)c(Cl)c2)C2=C1c1ccccc1C2=O (configuration not stated)	-0.9%	-19%	1%	-19%	10	-8.6	2
COc1cc2c(cc1OC)CN(C(=O)Nc1ccccc1)CC2	-11%	-43%	12%	-5%	-11	0.6	-4
CNC(=O)c1ccccc1NC(=O)C1CC(=O)N(C(C)C)C1 (configuration not stated)	-0.1%	3%[15.4 µM]	18%	9%	7	-3.1	6
Cc1c(N=Cc2cc(Br)cc(Br)c2O)cccc1C(=O)O	-9.4%	-1%	-19%	?	3	?	0
COc1cc(NC(=O)COc2ccccc2Cl)ccc1NC(=O)C(C)C	nt	26%	2%	3%	11	-1.1	7
CC(C)N=C(Nc1cccnc1)c1ccccc1	nt	-6%	11%	26%	-1	-0.4	10
CC1=C(C(=O)N2CCOCC2)CC(CC(=O)NCC2CCCCC2)C(=O)N1Cc1ccccc1 (configuration not stated)	1.0%	?	nt	nt	nt	nt	7
CCn1cc(CN2CCCC(C(=O)Nc3cccc(-c4cc5ccccc5[nH]4)c3)C2)c(C)n1 (configuration not stated)	3.2%	-57%[inhibitor]	1%	0%	-4	-8.6	-23
CN1CCCN(S(=O)(=O)c2cccc(Cl)c2Cl)CC1	nt	?	11%	-4%	-7	0.9	-2
C/C(CCc1oc2ccccc2c1-c1ccc(C)o1)=N/O	?	-2%	28µM*	-15%	0	4.4	-10
CC1(C)CCCN(C(=O)c2coc(=O)c(Br)c2)C1	25µM*	?	-4%	15%	-7	?	10
CCn1c(Cc2cccs2)nnc1SCC(=O)Nc1ccc(OC)c(OC)c1	-0.6%	-4%	5%	8%	-1	2.1	0
C=CCNc1cnn(-c2ccccc2)c(=O)c1Cl	-1.4%	-30%	10%	-4%	-4	0.1	5
CC1CN(S(=O)(=O)c2cccc(C(=O)OCC(=O)Nc3ccc4c(c3)OCO4)c2)CC(C)O1 (configuration not stated)	-2.4%	-7%	5%	7%	-2	-0.5	-17
COc1ccccc1NS(=O)(=O)c1cc(NC(=O)c2ccncc2)ccc1N1CCCC1	nt	9%[15.4 µM]	14µM*	nt	-7	-5.1	14
COc1ccc(CCNC(=O)c2nnn(CC(=O)Nc3ccccc3)c2N)cc1OC	1.1%	-17%	-29%	?	nt	1.4	0
COc1ccccc1NC(=O)CN1CCN(CC(=O)Nc2cc(C)ccc2OC)CC1	-2.4%	?	15%	-8%	-3	3.8	2
COc1ccc(-c2cn3cccnc3n2)cc1F	26%	9%	13%	4%	-4	4.8	-13
COc1ccc(C2(CN(C(C)=O)C(C)=O)CCCC2)cc1OC	0.2%	-41%[inhibitor]	8%	-1%	8	2.6	4
Cn1cccc1/C=N/NC(=O)c1ccco1	nt	2%[15.4 µM]	11%	nt	-9	0.0	-9
O=C(Nc1ccc(Br)cc1)C1C2C=CC3(O2)C1C(=O)N(CCN1CCOCC1)C3C(=O)NC1CCCCC1 (configuration not stated)	nt	15%	7%	6%	11	-0.8	8
COC(=O)c1[nH]c(C)c(/C(O)=C2\C(=O)C(=O)N(CCN(C)C)C2c2cc(OC)ccc2OC)c1C (configuration not stated)	-14%	15%	-1%	3%	0	2.5	-1
CC1CC(C)(C)NC(=S)N1CCC(=O)NCc1ccc(F)cc1 (configuration not stated)	-13%	-10%[15.4 µM]	10%	-3%	14	1.7	-22
O=C(OCn1ncc(Cl)c(Cl)c1=O)c1ccc(C(F)(F)F)cc1	-5.1%	-7%	0%	-1%	3	-10	5
O=C(COC(=O)c1ccc(O)cc1)NC1CCCCCCC1	-1.3%	-45%[inhibitor]	nt	nt	nt	nt	-5
CCCCn1c(N)c(N(CC(C)C)C(=O)c2ccc(S(=O)(=O)N3CCCCC3)cc2)c(=O)[nH]c1=O	?	-7%	nt	6%	-1	nt	7
CC(C)NS(=O)(=O)c1ccc(NC(=O)C2CCCCC2)cc1	-3.2%	5%	15%	20%	-3	4.7	4
COc1ccc(NC(=O)Cn2ncn3nc(-c4ccc(OC)cc4)cc3c2=O)cc1	nt	?	-1%	9%	-13	nt	1
Cc1ccc(NC(=O)c2cccs2)cc1NC(=O)c1ccccc1Cl	4.6%	16%	11%	10%	-6	0.6	nt
COc1cc(C)c(Cl)cc1S(=O)(=O)N(C)C	22%	17%	-19%	-12%	12	0.3	3
C=CCSc1nnc(NC(=O)c2cn(CC)c3nc(C)ccc3c2=O)s1	-0.2%	-10%[15.4 µM]	10%	-3%	0	8.3	5

Screening data as filed in PubChem BioAssay.
